Bioassay records deposited in PubChem BioAssay by National Center for Advancing Translational Sciences (NCATS).
VDR inhibitor: vitamin D3 receptor (human) inhibition; Potency, µM, for the others: max response, negative = inhibition, usual class: inhibitors; VDR-SRC2-3 peptide fluorescence polarization, 2 h; P11473; hit rate 0.93% among 400,000; active = well fitted inhibition curve with a large enough effect; inconclusive = small, poorly fitted or top-dose-only effect, or another doubt; inactive = no such curve, though single readings can be large or run the other way; also: series mostly up to about 120 µM
Target sequence (P11473 whole entry, looked up): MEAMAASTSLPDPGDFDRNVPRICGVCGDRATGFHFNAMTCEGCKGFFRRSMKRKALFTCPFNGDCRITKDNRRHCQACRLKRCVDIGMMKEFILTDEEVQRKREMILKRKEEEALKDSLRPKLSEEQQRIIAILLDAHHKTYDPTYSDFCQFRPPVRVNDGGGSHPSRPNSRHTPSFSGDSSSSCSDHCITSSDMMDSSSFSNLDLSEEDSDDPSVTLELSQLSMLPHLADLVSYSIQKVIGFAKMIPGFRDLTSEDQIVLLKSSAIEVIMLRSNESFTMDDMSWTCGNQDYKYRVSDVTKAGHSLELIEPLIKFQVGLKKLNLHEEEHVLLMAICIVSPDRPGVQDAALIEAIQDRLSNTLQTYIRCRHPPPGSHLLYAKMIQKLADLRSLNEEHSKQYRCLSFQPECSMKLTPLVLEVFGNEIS
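After 23 nl compound addition and a short centrifugation, plates sat for 2 hours at ambient temperature; polarization of fluorescence then indicated loss of VDR binding to peptide SRC2-3.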
An asterisk follows results filed as active; ? = inconclusive; & = joins results of further samples. % is scaled to controls: 0 for no effect and ±100 for the full control effect; potency is read from the fitted curve at half-maximal effect.

VDR inhibitor	canonical_smiles
22%	COc1ccc(NC(=O)/C=N/O)cc1
2%	O=C(NCc1ccccc1)c1cc2sccc2n1Cc1ccc(F)cc1
-13%	CC1CCc2nn(CC(=O)N3CCN(C(=O)c4ccco4)CC3)cc2C1 (stereo not drawn)
-3%	O=C(c1c(O)c2ccccc2oc1=O)C1CCC1
-3%	Cc1ccc(F)cc1NC(=O)CCNC(=O)c1ccc([N+](=O)[O-])cc1
10%	CCOc1cc(/C=N\NC(=O)c2ccc(C)nc2)cc([N+](=O)[O-])c1O
?	C#CC(=O)CC1(CN(Cc2ccccc2)C(=O)OC(C)(C)C)CCCCC1
9%	NC(N)=NC1=NC(=O)C(Cc2ccccc2)S1 (stereo not drawn)
-13%	O=C(CC12CC3CC(CC(C3)C1)C2)NCc1ccncc1
9%	CCCCNc1nc(N)nc(-c2cc(Cl)ccc2O)n1
-8%	CN1C(C(=O)Nc2ccccn2)C(=O)c2sc(Cl)cc2S1(=O)=O (stereo not drawn)
9%	CCCCOc1ccc(C(=O)N(Cc2ccc(C(C)C)cc2)C2CCS(=O)(=O)C2)cc1 (stereo not drawn)
8%	N#CCCn1c(=O)cnc2cnc(N3CCOCC3)nc21
-4%	COc1cc(C(=O)NCC(c2ccc3c(c2)OCO3)N2CCOCC2)cc(OC)c1OC (stereo not drawn)
-15%	CC12C(=O)N(NC(=O)c3ccncc3)C(=O)C1C1C=CC2C1 (stereo not drawn)
2%	O=C(Nc1ccc(Cl)cc1)C1c2cccc[n+]2CC(=O)N1Cc1ccc2c(c1)OCO2 (stereo not drawn)
-8%	Cc1nc(NCC2CCCO2)c2nnn(Cc3c(F)cccc3Cl)c2n1 (stereo not drawn)
-11%	CCN1CCN(C(=O)C23CCC(C)(C(=O)C2Br)C3(C)C)CC1 (stereo not drawn)
-8%	O=C1/C(=C/c2ccc(O)cc2)SC(=S)N1Cc1cccnc1
-15%	COC(=O)C1CSC(C(=O)OC)N1C(=O)Nc1ccccc1 (stereo not drawn)
21%	N#Cc1ccccc1OCC(=O)Nc1cccc(S(=O)(=O)N2CCCC2)c1
-1%	CCCN1CNc2c(c(=O)[nH]c(=S)n2CCc2ccc(Cl)cc2)C1
-4%	COc1ccc(CCn2c(C)c(C(C)=O)c(C(C)=O)c2C)cc1OC
-1%	O=C(/C=C/c1cn(-c2ccccc2)nc1-c1ccc2c(c1)OCCO2)NCCCN1CCOCC1
-3%	CC(C)(C)c1ccc(C(=O)N2CCNC(=O)C2CC(=O)Nc2ccc(F)cc2)cc1 (stereo not drawn)

Sorted by molecular weight (lowest first): some entries from above.
VDR inhibitor	canonical_smiles
-3%	O=C(c1c(O)c2ccccc2oc1=O)C1CCC1
10%	CCOc1cc(/C=N\NC(=O)c2ccc(C)nc2)cc([N+](=O)[O-])c1O
?	C#CC(=O)CC1(CN(Cc2ccccc2)C(=O)OC(C)(C)C)CCCCC1
-8%	CN1C(C(=O)Nc2ccccn2)C(=O)c2sc(Cl)cc2S1(=O)=O (stereo not drawn)

Entries from the list above that contain a thiophene ring, fused or not:
VDR inhibitor	canonical_smiles
2%	O=C(NCc1ccccc1)c1cc2sccc2n1Cc1ccc(F)cc1
-8%	CN1C(C(=O)Nc2ccccn2)C(=O)c2sc(Cl)cc2S1(=O)=O (stereo not drawn)

Of the compounds above, these contain a cyano group:
VDR inhibitor	canonical_smiles
8%	N#CCCn1c(=O)cnc2cnc(N3CCOCC3)nc21
21%	N#Cc1ccccc1OCC(=O)Nc1cccc(S(=O)(=O)N2CCCC2)c1

Additional results follow:
VDR inhibitor	canonical_smiles
15%	CC(Sc1ccc(Cl)cc1)C(=O)NCc1cccnc1 (stereo not drawn)
-9%	CC1CC(C)CN(CCOCCSc2ccccc2)C1 (stereo not drawn)
17%	CC(/C=N/NC(=O)Cc1cccs1)=C\c1ccccc1
-14%	Cc1nc(CN(C)C(=O)C2CCC(=O)N(CCc3cccc(F)c3)C2)cs1 (stereo not drawn)
2%	Cc1cc(F)c(F)c(C(=O)N2CCC(C)CC2)c1Cl
-5%	Cc1cccc2cc(/C=N/NC(=O)c3ccncc3)c(Cl)nc12
3%	O=C(CNC(=O)c1cccc(OC(F)F)c1)Nc1ccc(Cl)cc1
-7%	O=C(N[C@@H](Cc1ccccc1)C(=O)O)c1ccc(C(F)(F)F)cc1
4%	CC1CCc2sc(C(=O)Nc3ccc(C(N)=O)cc3)cc2C1 (stereo not drawn)
18µM*	O=C(/C=C/c1ccccc1)c1ccccc1O
-4%	O=C1Nc2ccc(Br)cc2/C1=N/N=C/C1=C(N2CCOCC2)C(=C\c2ccccc2)/CC1
-8%	Cc1cnc(C(=O)OC(C(=O)c2ccccc2)c2ccccc2)cn1 (stereo not drawn)
-9%	CCc1ccc(CCN2C(=O)c3ccccc3C2=O)nc1
-22%	CCCCCN(C(=O)CCC(=O)OC(C)C(=O)c1ccc(Cl)cc1)c1c(N)n(CCCC)c(=O)[nH]c1=O (stereo not drawn)
-3%	CCOc1ccc(NC(=O)CSc2nc(C3CC3)nc3ccccc23)cc1
16%	COc1ccc(NC(=O)CN2C(=O)C(C)(C)c3ccccc32)cc1Cl
8%	Cc1sc2nc(CN3CCCC3)nc(N3CCN(C(=O)c4ccco4)CC3)c2c1C
1%	Cc1cc(=O)cc(C)n1-c1ccc2c(c1)nc(C)n2-c1ccccc1
?	O=C1CC(=O)N(Cc2cccs2)C(=O)N1
-9%	COc1ccc(CNc2ncnc3cc(OC)c(OC)cc23)cc1
26%	CCc1ccc2c(c1)cc(CN(Cc1ccco1)C(C)=O)c1nnnn12
-7%	COc1cc(C(=O)NC2CC3CCCC(C2)N3C2CC2)cc(OC)c1OC (stereo not drawn)
-9%	CSc1nc(N)n2nc(-c3ccc(Cl)cc3)cc2n1
-24%	Cc1cc(C)n(-c2cccc(CN3CCC(CO)(Cc4ccccc4)CC3)c2)n1
-2%	CN(C)C(=O)c1ccc(-c2cc(NCc3cccnc3)ncn2)cc1
-4%	CCCCC(=O)OCc1nc2ccccc2s1
19%&-9%	COc1cccc(-c2nc(CS(=O)(=O)CC(=O)Nc3cc(F)ccc3F)c(C)o2)c1
18%	O=C(NCCC(=O)N1CCCCCCC1)c1ccc(Br)cc1
-5%	CCOC(=O)Cc1[nH]nc2c1C(Cc1ccccc1)C(C#N)=C(N)O2 (stereo not drawn)
-11%	CCOC(=O)c1cc[nH]c1CC(=O)NC
5%	CCOc1ccc(CN(C(=O)c2ccccn2)c2ccc(OC)c(Cl)c2)cc1
3%	COc1ccc(Cn2ccnc2)cc1Br
21%	CC(C)C(=O)O/N=C(\N)c1ccc(Oc2ccc(Cl)cc2)c([N+](=O)[O-])c1
0%	Cc1csc(C(=O)O)c1NC(=O)c1c(Cl)cccc1Cl
-9%	Cc1ccc(C(=O)O/N=C(\N)c2ccccn2)c(Cl)c1
22%	O=S(=O)(c1ccccc1)n1nc(-c2ccco2)nc1NCc1ccccc1
3%	Cc1cc(-c2ccccc2)nc(N/N=C/c2ccc(N(C)C)cc2)n1
14%	Cn1c(COc2ccc(Cl)cc2)nnc1SCc1ncc(-c2ccccc2)o1
?	CC(=O)Nc1ccc(SCC(=O)c2ccc(Br)s2)cc1
-8%	CCOc1ccc(/C=N/OCC(=O)NC(c2ccccc2)c2ccccc2)cc1
-4%	O=C(NC(=S)Nc1cccnc1Cl)c1ccc(Cl)cc1
-1%	Cc1ccc(CNC(=O)CN2CCN(c3ccc(F)cc3)CC2)cc1
-7%	O=C(c1ccccc1)C1N=NCC1c1ccc(Cl)cc1 (stereo not drawn)
-3%	Cc1cc(C)nc(N/N=C/c2ccccc2OCc2cccc(Br)c2)n1
-18%	CC1(NC(=O)c2ccccc2)CCN(CCc2cccs2)C1=O (stereo not drawn)
8%	O=C(CC(C(=O)O)c1c[nH]c2ccccc12)c1ccccc1 (stereo not drawn)
13%	O=C(Nc1nc(-c2ccc([N+](=O)[O-])cc2)cs1)c1c(F)cccc1F
5%	CN(CC(=O)Nc1ccc(F)cc1)C(=O)c1cccc(S(=O)(=O)N2CCN(c3ccccc3)CC2)c1
-5%	CC1CCN(C(=O)Cn2c(=O)n(CCCC(=O)NCc3ccco3)c(=O)c3sccc32)CC1
-8%	Cc1ccc(-n2nnnc2SCC(=O)N2CC(=O)Nc3ccccc32)cc1

More records
VDR inhibitor	canonical_smiles
-5%	CCc1ccc(NC(=O)CC2C(=O)N(c3ccc(C)cc3)C(=O)N2C2CCCC2)cc1 (stereo not drawn)
0%	CCC1(CC)NC(=O)N(CC(=O)OCC(=O)c2cc(C)c(C)cc2C)C1=O
-17%	CCCCn1c(N)c(N(CCOC)C(=O)CSc2nnc(-c3ccco3)n2CC)c(=O)[nH]c1=O
-5%	Cc1ccc(C(=O)n2nc(C)c(S(=O)(=O)N3CCOCC3)c2C)cc1
17%	COc1ccc(C2(C)NC(=O)N(CC(=O)N3CCc4ccccc43)C2=O)cc1OC (stereo not drawn)
-7%	COc1cc2[nH]c(=S)nc(NCCc3ccc(C)cc3)c2cc1OC
-12%	CS(=O)(=O)c1ccc(C(=O)OCC(=O)NC(=O)C2COc3ccccc3O2)cc1[N+](=O)[O-] (stereo not drawn)
-23%	N#CC1=C(N)OC2=C(CN(Cc3ccccc3)C/C2=C\c2cccnc2)C1c1cccnc1 (stereo not drawn)
-5%	CCOC(=O)c1cnc2ccc(Cl)cc2c1N1CCN(C)CC1
-12%	Cc1ccc(NC(=S)NCCSc2ccc(Cl)cc2)c(C)c1
2%	COc1ccc(-c2noc(CSc3nnc(-c4ccncc4)n3-c3ccc(C)cc3)n2)cc1
5%	CCc1ccc(N(C(=O)C(F)(F)F)C(C(=O)NC2CCCCC2)c2ccncc2)cc1 (stereo not drawn)
-11%	Cc1nc2c3ccccc3n(CC#N)c(=O)n2n1
-6%	Cc1ccc(NC(=O)CNc2ccc(Cl)cc2F)cc1
13%	CCn1c(C)nc2cc(C(=O)NNC(=S)NC(=O)c3ccc(OC)cc3)ccc21
1%	CC(=O)Nc1ccc(NC(=O)C(C)OC(=O)/C=C/c2cnc3ccccc3n2)cc1 (stereo not drawn)
14%	COCCCNC(=O)C(=O)C1C(=O)Nc2ccccc21 (stereo not drawn)
-1%	C/C(NC(=O)c1cccs1)=C1\C(=O)C[C@@H]2[C@H]1C2(C)C
-4%	COc1ccc(OCC(=O)NC(CC(=O)O)c2ccc(OC)c(OC)c2)cc1 (stereo not drawn)
0%	O=C(O)c1ccc(N/N=C/c2cccc3cccnc23)cc1
-9%	Cc1ccnc(NC(=O)CCC(=O)N(CC(=O)NC(C)(C)C)c2ccc(F)c(Cl)c2)c1
3%	Clc1ccc2nc(-c3ccccn3)c(Nc3ccc4c(c3)OCO4)n2c1
-1%	NN=C1c2cc(S(=O)(=O)NCCO)ccc2-c2ccc(S(=O)(=O)NCCO)cc21
5%	CC(C)c1ccc(NC(=O)c2cc(S(=O)(=O)NC3CCCCC3)ccc2F)cc1
?	COc1ccc(Br)cc1C(=O)Nc1ccc(N2CCN(S(C)(=O)=O)CC2)cc1

Copied from the list.
`C/C(NC(=O)c1cccs1)=C1\C(=O)C[C@@H]2[C@H]1C2(C)C` @ VDR inhibitor = -1%
`Cc1ccc(NC(=S)NCCSc2ccc(Cl)cc2)c(C)c1` @ VDR inhibitor = -12%
`CCn1c(C)nc2cc(C(=O)NNC(=S)NC(=O)c3ccc(OC)cc3)ccc21` @ VDR inhibitor = 13%

New compounds follow:
VDR inhibitor	canonical_smiles
-9%	CCn1c(SCC(=O)Nc2ccc(OC)cc2)nnc1-c1ccco1
-8%	COc1ccc(C)cc1NC(=O)CSCc1cc(=O)n2c(C)csc2n1
-3%	CCc1ccc(NC(=O)CC2C(=O)N(c3cccc(C)c3)C(=O)N2CCC(C)C)cc1 (stereo not drawn)
-11%	CCCCCCNS(=O)(=O)c1nc2nc(C)cc(C)n2n1
-13%	NCCc1nc(-c2ccccc2)cs1
-3%	CCn1nnnc1SCC(=O)c1ccc(C)cc1
-6%	COc1ccc(C(=O)Cn2cnc3ccccc3c2=O)cc1OC
-9%	CN(C)Cc1ccccc1-c1ccc2ncnc(NC3CC3)c2c1
?	Nc1ncnc2oc(-c3ccoc3)c(-c3ccco3)c12
12%	CCCN1C(=O)c2[nH]nc(-c3ccc(F)cc3)c2C1c1ccccn1 (stereo not drawn)
-1%	CN(C(=O)COC(=O)c1ccc(Cl)nc1)c1c(N)n(Cc2ccccc2)c(=O)[nH]c1=O
12%	COc1c(C)cc(C(=O)C2CCCN(C(=O)Cn3nc(C)nc3C)C2)cc1C (stereo not drawn)
-26%	CCC(=NCCc1ccc(OC)c(OC)c1)C1=C(O)CC(C)(C)CC1=O
12%	COc1ccc(-c2csc(NC(=O)c3cccc(N4C(=O)CCC4=O)c3)n2)cc1C
5%	CCOc1ccccc1NC(=O)CSc1nnnn1-c1ccc(C(=O)OC)cc1
8%	CCN(CC)C(=O)c1ccc(-c2nnc(OC)c3ccccc23)cc1
23%	CCCCOC(=O)c1ccc(Nc2nc3ccc(C(=O)c4ccccc4)cc3n3cnnc23)cc1
11%	CCN(CC)CCN(C(=O)c1ccc(C(=O)c2ccccc2)cc1)c1nc2c(OC)cccc2s1
-16%	O=C1CCCCCN1Cc1ccccc1
-11%	CCC(CO)Oc1cc(NCc2ccc(C)cc2)c2ncn(C(C)C)c2c1 (stereo not drawn)
-10%	NC(=O)N/N=C/c1ccc(-c2cccc(C(F)(F)F)c2)o1
1%	CCCCN1CCc2c(c3ccccc3n2Cc2ccccc2)C1
-20%	Cc1sc(NC(=O)c2cccs2)c(C(N)=O)c1C
-22%	CCOC(=O)C1=CN(Cc2cccc(F)c2)S(=O)(=O)N(C)C1c1ccccc1 (stereo not drawn)
-11%	COC(=O)CSc1nc2c(cnn2-c2ccc(Cl)cc2)c(=O)[nH]1
-15%	CN1CC(=O)N2[C@H]3c4ccccc4OC[C@@H]3[C@H](c3ccccc3)[C@]2(C)C1=O

The list is partial, so the mix of outcomes need not match the whole.
